NS1 inh: qHTS Assay for Inhibitors of Influenza NS1 Protein Function | 270,000 tested, 0.4% active | S. cerevisiae slowed by influenza A NS1, growth recovery by OD600 | Potency, µM (doses to about 46.1 µM), inactives show top-dose activity, positive = more growth; active means well fitted rising curve with a large enough effect; inconclusive means small, poorly fitted or top-dose-only effect; inactive means no such curve, though single readings can be large or run the other way; also: nearly all actives have a fitted effect of over 50% in size
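Read-out: OD600 growth recovery of NS1-expressing budding yeast. Cells grown overnight at 30C in -URA glucose medium, washed, resuspended and diluted 1:100 in 2% galactose assay medium, pH 6.0. Same strain lacking NS1 served as positive control.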
Cruzain Triton: qHTS Assay for Promiscuous and Specific Inhibitors of Cruzain (with detergent). purified cruzain, Z-FR-AMC fluorescence, 0.01% Triton. 200,000 tested, 0.43% active. Potency, µM, without a hit: max response, negative = inhibition, usual class: inhibitors;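 also: plate controls were neutral wells for no effect and buffer without enzyme for full effect; nearly all actives have a fitted effect of over 40% in size; top concentration of the series not given in the record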
Target sequence (P25779 123-467 limits assumed): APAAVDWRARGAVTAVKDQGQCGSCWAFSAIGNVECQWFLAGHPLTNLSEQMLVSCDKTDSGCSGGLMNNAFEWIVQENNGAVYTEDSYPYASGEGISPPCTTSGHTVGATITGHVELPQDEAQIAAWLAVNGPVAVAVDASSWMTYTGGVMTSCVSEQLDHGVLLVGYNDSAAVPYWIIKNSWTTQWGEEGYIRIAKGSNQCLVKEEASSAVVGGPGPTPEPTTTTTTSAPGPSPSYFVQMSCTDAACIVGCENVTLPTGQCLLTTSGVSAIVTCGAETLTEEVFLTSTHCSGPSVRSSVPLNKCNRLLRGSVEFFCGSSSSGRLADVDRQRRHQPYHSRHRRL
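15 min RT preincubation of 1.5 nM cruzain with compound, then 2 uM Z-FR-AMC added; kinetic AMC fluorescence, 60 s delta. Triton X-100 0.01%, pH 5.5.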
RE007 growth inh: qHTS Assay for Inhibitors of the HIV-1 protein Vpr; S. pombe RE007 Vpr strain, BacTiter-Glo ATP luminescence, 24 h; control for the full effect not named in the record; Potency, µM (highest dose often 92.2 µM), for inactives: top-dose activity change, negative = less growth; 360,000 tested, 0.21% active; AID 651644, 2012; active = well fitted falling curve with a large enough effect; inconclusive = small, poorly fitted or top-dose-only effect; inactive = no such curve, though single readings can be large or run the other way;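 also: % is scaled to controls: 0 for no effect and ±100 for the full control effect; nearly all actives have a fitted effect of over 50% in size; the assay follows cell death caused by Vpr and the record does not say whether a fall means rescue or toxicity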
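Fission yeast RE007 carrying one integrated HIV-1 vpr copy, seeded at OD 0.01 in PMG+AL medium with 23 nL pinned compound. Grown 24 h at 30 degrees; viability read by BacTiter-Glo luminescence after 5 min.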
Lassa entry inh: qHTS for Inhibitors of binding or entry into cells for Lassa Virus; 300,000 tested, 1.2% active; Potency, µM (titrated, usually from 37.9 µM), for the others: at the top dose activity change, negative = inhibition, usual class: inhibitors; Lassa virus pseudotype entry inhibition, cell reporter; control for the full effect not named in the record; active means well fitted inhibition curve with a large enough effect; inconclusive means small, poorly fitted or top-dose-only effect, or effect the other way; inactive means flat fitted curve, though single readings scatter; tested in HEK293 cells; also: % is scaled to controls: 0 for no effect and ±100 for the full control effect; nearly all actives have a fitted effect of over 50% in size; luciferase read-out
2A StopGo: High Throughput Screening for Foot and Mouth Disease Virus Antivirals; Potency, µM (highest dose often 57.9 µM), without a hit: at the highest dose signal change, negative = less light; 410,000 tested, 1.2% active; human cells with a luciferase reporter of 2A StopGo recoding; control for the full effect not named in the record; active = well fitted falling curve with a large enough effect; inconclusive = small, poorly fitted or top-dose-only effect; inactive = no such curve, though single readings can be large or run the other way; tested in HEK293T cells; also: % is scaled to controls: 0 for no effect and ±100 for the full control effect; nearly all actives have a fitted effect of over 45% in size; luciferase light after 4 h
Cruzain noTriton: qHTS Assay for Promiscuous and Specific Inhibitors of Cruzain (without detergent). 200,000 tested, 2.3% active. Potency, µM, without a hit: max response, negative = inhibition, most hits filed as inhibitors. purified cruzain, Z-FR-AMC fluorescence, no detergent. Cruzipain (Trypanosoma cruzi), P25779;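 also: plate controls were enzyme without inhibitor for no effect and buffer without enzyme for full effect; nearly all actives have a fitted effect of over 40% in size; top concentration of the series not given in the record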
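Detergent-free condition (0.00005% Triton X-100) in acetate buffer pH 5.5 with DTT. 1.5 nM enzyme and compound were pre-mixed 15 min, then 2 uM Z-FR-AMC substrate added; reaction progress from fluorescence change between first and third reads (60 s).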
Marburg entry inh: qHTS for inhibitors of binding or entry into cells for Marburg Virus; Potency, µM (doses to about 37.8 µM), for inactives: at the highest dose activity change, negative = inhibition, most hits filed as inhibitors; 300,000 tested, 1.8% active; Marburg virus pseudotyped entry inhibition, cell reporter; control for the full effect not named in the record; about a third of the inactives were read at about 46 µM; active = well fitted inhibition curve with a large enough effect; inconclusive = small, poorly fitted or top-dose-only effect, or effect the other way; inactive = flat fitted curve, though single readings scatter; tested in HEK293 cells; about a fifth of its hits are not listed in these tables; also: % is scaled to controls: 0 for no effect and ±100 for the full control effect; luciferase read-out
SARS PLpro yeast: qHTS of Yeast-based Assay for SARS-CoV PLP; S. cerevisiae expressing SARS-CoV PLpro, growth rescue; control for the full effect not named in the record; Potency, µM (highest dose often 32.9 µM), for the others: at the highest dose activity, positive = growth rescue; 330,000 tested, 0.19% active; active means well fitted rising curve with a large enough effect; inconclusive means small, poorly fitted or top-dose-only effect; inactive means no such curve, though single readings can be large or run the other way; also: 0% is about no effect; nearly all actives have a fitted effect of over 55% in size; growth read by luminescence after 48 h
Active calls of the source: *; ? = inconclusive; · = no result given; & = joins results of further samples; [ ] = remark or other dose. Unless noted, calls follow the shape of the dose curve; as a rule, active = well fitted curve in the direction sought with a large enough effect; inconclusive = small, poorly fitted or top-dose-only effect, or another doubt; inactive = no such curve, though single readings can be large; an effect the other way counts as inactive or inconclusive. Potency is read from the fitted curve at half-maximal effect. Not a hit list, and some 4.6% of all compounds hit somewhere here.

SMILES	NS1 inh	Cruzain Triton	RE007 growth inh	Lassa entry inh	2A StopGo	Cruzain noTriton	Marburg entry inh	SARS PLpro yeast
COc1cccc(C2SCC(=O)N2c2ccc(Cl)cc2)c1OC (stereo not drawn)	-11%	-4.7%	6%	-17%	-32%	2%	?	25%
O=C(NC1=NCCS1)c1cccc(S(=O)(=O)N2CCc3ccccc32)c1	-9%	·	0%	-21%	0%	·	13%[14.2 µM]	0%
CN(C1CCCCC1)S(=O)(=O)c1ccc(S(=O)(=O)N2CCN(CCC#N)CC2)cc1	-15%	-1.0%	5%	-4%	-9%	?	12%&12%	-17%
CCOc1ccc(Nc2nc(N)c([N+](=O)[O-])c(N3CCN(C)CC3)n2)cc1	-3%	·	-7%	·	?	·	·	1%
O=S(=O)(Cc1ccccc1)N1CCc2ccccc21	-10%	3.2%	·	·	·	-7%	0%	-5%
CCC1(C)CC(CCNCc2ccc(N(C)C)cc2)(c2ccc(F)cc2)CCO1 (stereo not drawn)	-1%	·	-4%	·	-12%	·	·	-2%
CC(C)Oc1ccc(S(=O)(=O)N(C(C)C)C(C)C)cn1	-2%	-4.6%	0%	-7%	-23%	4%	?	-4%
CCN(CC)CCn1c2ccc(Cl)cc2c2nc(C)sc21	-47%	0.4%	3%	-16%	·	-4%	-58%	-13%
O=C(Nc1nc2ccccc2[nH]1)c1ccc(Br)o1	-38%	·	1%	?	3%	·	?	-17%
Cc1ccc(-n2nccc2-c2nn(-c3cccc(C(F)(F)F)c3)c(=O)n(C)c2=O)cc1	·	·	11%	?	-5%	·	25%[46.1 µM]	1%
O=S(=O)(c1ccc(F)cc1)N1CCN(c2ccc(-c3ccccc3)nn2)CC1	·	·	12%	-8%	-2%	·	-9%[46.1 µM]	-5%
CCOc1ccc(OCC(=O)Nc2ccc(S(N)(=O)=O)cc2)cc1	·	·	-8%	4%	-18%	·	?	1%
COc1cc2c(cc1OC)C(COc1ccc3c(C)cc(=O)oc3c1)N(C(=O)Cc1ccccc1)CC2 (stereo not drawn)	·	1.3%	·	?	-26%	-2%	?	·
CCC(=O)OC1(C#CCOc2ccc(OC)cc2)CCN(C)CC1	-4%	-0.7%	2%	8%	-11%	1%	0%	-1%
NS(=O)(=O)c1cccc(NC(=O)CSc2nnc(C3CC3)n2Cc2ccccc2)c1	-6%	·	4%	?	10%	·	-5%	0%
CCCCOC(=O)N/N=C/C=C/c1ccccc1	-8%	-3.5%	12%	-28%	50%[activator]	-17%	?	-13%
Cc1cc(C)n(-c2ccc([N+](=O)[O-])cc2-c2nn[nH]n2)n1	·	·	11%	13%[46.1 µM]	6%	·	18%[46.1 µM]	0%
COc1ccc(CCN2C(=O)c3ccccc3NC2c2cc(Cl)c(O)c(OC)c2)cc1 (stereo not drawn)	7%	·	10%	5.6µM*	-5%	·	?	-3%
Cc1ccc(NC(=O)CC(=O)NCCN2CCOCC2)cc1	13%	3.6%	2%	-10%	·	-11%	?	-1%
COc1ccc(CCNC(=S)NC2CCN(Cc3ccccc3)CC2)cc1	2%	·	1%	-6%[46.1 µM]	-22%	·	?	-1%

An excerpt of these results, with values under each structure:
Values run as follows: NS1 inh, Cruzain Triton, RE007 growth inh, Lassa entry inh, 2A StopGo, Cruzain noTriton, Marburg entry inh, SARS PLpro yeast
> Cc1ccc(NC(=O)CC(=O)NCCN2CCOCC2)cc1
    13%, 3.6%, 2%, -10%, ·, -11%, ?, -1%
> NS(=O)(=O)c1cccc(NC(=O)CSc2nnc(C3CC3)n2Cc2ccccc2)c1
    -6%, ·, 4%, ?, 10%, ·, -5%, 0%
> Cc1cc(C)n(-c2ccc([N+](=O)[O-])cc2-c2nn[nH]n2)n1
    ·, ·, 11%, 13%[46.1 µM], 6%, ·, 18%[46.1 µM], 0%

More records
SMILES	NS1 inh	Cruzain Triton	RE007 growth inh	Lassa entry inh	2A StopGo	Cruzain noTriton	Marburg entry inh	SARS PLpro yeast
Cc1nc(SCC(=O)N2CCNC2=O)c2ccccc2n1	·	·	-5%	-13%[46.1 µM]	-12%	·	?	2%
CSC1=NCCN1S(=O)(=O)c1ccc(NC(C)=O)cc1	4%	·	-3%	·	-8%	·	·	0%
Cc1ccc(S(=O)(=O)N(C)C)cc1NC(=S)N1CCCCC1CO (stereo not drawn)	·	·	2%	8%[46.1 µM]	0%	·	15%[46.1 µM]	-1%
O=C(Cc1cccs1)N1CCN(c2ccc([N+](=O)[O-])cc2)CC1	·	·	5%	3%	?	·	-2%[46.1 µM]	2%
Clc1ccc(/C=N/Nc2nc(Cl)nc3ccccc23)cc1	-2%	-2.4%	-1%	27%	53%[activator]	?	?	-9%
FC(F)(F)c1ccncc1-c1nnnn1-c1ccc(Cl)cc1	9%	·	-16%	-5%	-26%	·	?	-1%
CSCCC(NS(=O)(=O)c1ccc(Cl)cc1)C(=O)OCC(=O)c1c(C)[nH]c2ccccc12 (stereo not drawn)	?	-7.4%	3%	?	35µM*	-5%	12µM*	-5%
Cc1ccc([N+](=O)[O-])cc1S(=O)(=O)Nc1ccc(N2CCOCC2)cc1	·	·	-13%	-10%	1%	·	6%[46.1 µM]	0%
COc1ccc(N2CCN(C(=O)CN3CCN(C(c4ccccc4)c4ccccc4)CC3)CC2)cc1	4%	-0.9%	-8%	-23%	-15%	-5%	?	3%
Cc1onc(-c2ccccc2)c1C(=O)N1CCOC12CCN(c1cccc(F)n1)CC2	·	·	21%	-7%[46.1 µM]	-25%	·	?	-3%
CCN1CCN(c2nc3ccccn3c(=O)c2C=O)CC1	3%	·	1%	·	-12%	·	·	2%
Cc1onc(-c2c(F)cccc2Cl)c1C(=O)Nc1sc2c(c1C(N)=O)CCC2	8%	-15%	2%	-28%	?	?	?	-17%
C=CCn1c(CNC(=O)c2cccs2)nnc1SCC(=O)Nc1ccc(C(=O)O)cc1	8%	-0.1%	-6%	9%	12%	6%	4%	15%
CCN(CC(=O)Nc1ccccc1C(F)(F)F)C(=O)c1ccc(=O)n(Cc2ccccc2)n1	7%	·	-7%	-12%	0%	·	-24%	-11%
O=[N+]([O-])c1cccc(S(=O)(=O)N2CN(c3ccc(Br)cc3)c3nc4ccccc4nc32)c1	·	·	10%	15%	-7%	·	0%	-9%
O=C(NC1CC(=O)N(c2cccc(F)c2)C1)c1ccc(Br)o1 (stereo not drawn)	·	-0.3%	·	-22%[46.1 µM]	-5%	4%	·	·
COCCNC(=O)CCn1nc(-c2ccc(Cl)cc2)ccc1=O	?	1.6%	-19%	-20%	-18%	-2%	1%	4%
Cc1cccc2[nH]c(CN(C)C(=O)C3CCC(=O)N(CCc4ccccc4)C3)nc12 (stereo not drawn)	-11%	·	-13%	-27%	-21%	·	5%	0%
Cc1ccccc1-c1nsc(SCC(=O)c2ccc(Cl)cc2)n1	2%	-1.6%	-13%	?	-4%	-8%	?	-26%
O=C(NCCS(=O)(=O)N1CCN(c2ccccc2F)CC1)c1cccc(Br)c1	14%	·	0%	·	-21%	·	·	6%
Cc1c(NC(=O)c2cc3c(s2)-c2ccccc2OC3)cccc1[N+](=O)[O-]	-11%	-6.8%	-3%	?	28µM*	-12%	?	0%
COc1ccc(F)cc1S(=O)(=O)Nc1cc2c3c(c1)CCC(=O)N3CCC2	·	·	10%	?	44%[activator]	·	-12%	2%
CCCCC1(CC)COC(c2ccccc2)OC1 (stereo not drawn)	·	·	-1%	9%[46.1 µM]	-6%	·	3%[46.1 µM]	·
Cc1cc(C)cc(C(=O)N[C@@H](C)C(=O)N2CCC3(CC2)NCCc2[nH]cnc23)c1	-14%	·	5%	10%[46.1 µM]	-5%	·	-8%[46.1 µM]	0%
Cc1cc(C)cc(NC(=O)CSc2nc3ccccc3nc2N2CCCCC2)c1	12%	·	-8%	·	0%	·	·	3%
CC(=O)Nc1ccc(S(=O)(=O)N(C)CC(=O)OCC(=O)NNC(=O)c2ccccc2F)cc1	·	·	-1%	-3%	4.5µM*	·	-4%	-3%
CCN(CC(=O)Nc1cccc(F)c1)Cc1nc2ccccc2c(=O)[nH]1	·	·	3%	-23%[46.1 µM]	-14%	·	?	-2%
COc1cc(Cl)c(C)cc1NC(=O)CC1CCCC1	-51%	·	-7%	15%	-1%	·	-19%[46.1 µM]	-7%
CCn1cc(CCC(=O)NC(C)c2ccccc2)c2ccccc21 (stereo not drawn)	-10%	·	-11%	·	-12%	·	·	-1%
OC1(c2ccc(F)cc2)CCNC1 (stereo not drawn)	0%	1.5%	-5%	9%	12%	1%	-7%	-12%

Gathered by group, those above containing a furan ring, fused or not
SMILES	NS1 inh	Cruzain Triton	RE007 growth inh	Lassa entry inh	2A StopGo	Cruzain noTriton	Marburg entry inh	SARS PLpro yeast
O=C(Nc1nc2ccccc2[nH]1)c1ccc(Br)o1	-38%	·	1%	?	3%	·	?	-17%
O=C(NC1CC(=O)N(c2cccc(F)c2)C1)c1ccc(Br)o1 (stereo not drawn)	·	-0.3%	·	-22%[46.1 µM]	-5%	4%	·	·

The results go on.
SMILES	NS1 inh	Cruzain Triton	RE007 growth inh	Lassa entry inh	2A StopGo	Cruzain noTriton	Marburg entry inh	SARS PLpro yeast
O=C(CN(C(=O)Cn1nnc(-c2ccccc2F)n1)c1cnc2ccccc2c1)NCC1CCCO1 (stereo not drawn)	·	·	-13%	-15%	-7%	·	-15%[46.1 µM]	3%
COC(=O)c1ccc(N2C(=O)c3cc(N4CCOCC4)c([N+](=O)[O-])cc3C2=O)cc1	5%	-7.3%	-2%	2%	-29%	16%	?	26%
CCn1nc(NC(=O)c2ccncc2)c2cc3ccccc3nc21	-34%	-3.9%	3%	-19%	-27%	7%	-13%[46.1 µM]	-7%
COc1ccc(CCNC(=O)CCC(=O)n2ncc3ccc(Cl)cc32)cc1OC	-8%	·	-5%	·	0%	·	·	-1%
CCOc1ccc(C(=O)Nc2cccc3ncccc23)cc1Br	1%	·	1%	·	-22%	·	·	0%
